Sfp PPTase inh = blocks B. subtilis Sfp PPTase activity. Q9F4F7. Biochemical Sfp PPTase activity, qHTS. Potency, µM, for the others: max response, negative = inhibition, usual class: inhibitors. 310,000 tested, 3.5% active. AID 1490; active = well fitted inhibition curve with a large enough effect; inconclusive = small, poorly fitted or top-dose-only effect, or another doubt; inactive = no such curve, though single readings can be large or run the other way;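 note: the enzyme is Sfp with the accession as filed and its product quenches rhodamine fluorescence; potency is the fitted concentration of half-maximal effect; 0% = enzyme reaction without inhibitor and -100% = no enzyme wells; top concentration of the series not given in the record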
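Step 1, compound plus 15 nM Sfp-PPTase, 15 min, room temperature. Step 2, add rhodamine-CoA (5 uM) and BHQ-2-YbbR (12.5 uM). Step 3, read 525/598 nm fluorescence at 0 and 30 min.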
gsp antag = antagonists of gsp mutant (McCune-Albright syndrome) | gsp-mutant cells, cAMP HTRF, 30 min; control for the full effect not named in the record | Potency, µM (titrated, usually from 76.9 µM), for the others: at the top dose activity change, negative = inhibition, usual class: inhibitors | 340,000 tested, 0.4% active; active = falling curve of any shape with a large fitted effect; inconclusive = falling curve, mostly with a smaller effect; inactive = flat or rising curve; cell line not stated here;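 note: intracellular cAMP measured with PDE inhibitor Ro 20-1724 present during compound exposure; potency is the fitted concentration of half-maximal effect; % is set by controls: 0 for no effect and ±100 for the full control effect; nearly all actives have a fitted effect of over 65% in size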
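HTRF cAMP measurement after 30 min RT detection following 30 min, 37C compound treatment alongside […] (added as 300 uM solution) in G418-selected cells seeded at 2000/well and grown 16–24 h.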
TRPV1 potentiator = enhances activation of the human vanilloid receptor TRPV1 | Q8NER1 | TRPV1-expressing cells, Fluo-8 calcium influx, capsaicin EC20 potentiation; host cell line not named in the record; control for the full effect not named in the record | potentiation, % at 8.33 µM | 320,000 tested, 0.02% active | AID 540277; active means potentiation above 80%; inconclusive means 30% to 80%; inactive means below 30%; note: 0% is about no effect
Target sequence (Q8NER1 whole entry, looked up): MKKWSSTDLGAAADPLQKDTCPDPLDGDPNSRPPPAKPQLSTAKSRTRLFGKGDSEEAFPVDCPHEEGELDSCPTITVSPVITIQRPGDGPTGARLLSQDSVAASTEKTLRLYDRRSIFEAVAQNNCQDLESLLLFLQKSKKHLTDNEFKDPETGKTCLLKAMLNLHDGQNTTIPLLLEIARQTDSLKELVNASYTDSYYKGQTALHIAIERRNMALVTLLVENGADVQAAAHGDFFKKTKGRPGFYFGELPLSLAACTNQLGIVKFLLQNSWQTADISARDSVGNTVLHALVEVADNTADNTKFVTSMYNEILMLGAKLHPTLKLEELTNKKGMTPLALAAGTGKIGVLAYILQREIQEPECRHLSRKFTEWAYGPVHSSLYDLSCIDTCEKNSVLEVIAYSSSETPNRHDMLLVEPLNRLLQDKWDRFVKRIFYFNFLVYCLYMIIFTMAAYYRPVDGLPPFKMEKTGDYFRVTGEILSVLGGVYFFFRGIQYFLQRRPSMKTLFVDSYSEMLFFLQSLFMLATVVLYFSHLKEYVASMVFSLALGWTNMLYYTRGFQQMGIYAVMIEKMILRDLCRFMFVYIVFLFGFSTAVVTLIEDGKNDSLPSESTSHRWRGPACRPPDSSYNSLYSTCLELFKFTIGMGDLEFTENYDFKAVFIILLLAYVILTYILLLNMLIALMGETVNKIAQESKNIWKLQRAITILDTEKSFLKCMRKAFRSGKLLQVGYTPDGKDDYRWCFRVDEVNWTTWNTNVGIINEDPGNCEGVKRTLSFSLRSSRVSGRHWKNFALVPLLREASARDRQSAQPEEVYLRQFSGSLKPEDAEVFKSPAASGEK
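Fluo-8 calcium influx in TRPV1-expressing cells, kinetic read (ex 480/em 520 nm). Compound added and read 3 min for agonist activity, followed by capsaicin at EC20 final and 2 min further read for enhancement.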
ClpP mod = qHTS Assay for Activators of ClpP; 340,000 tested, 1.9% active; AID 651965, 2013; Potency, µM (series often up to 57.5 µM), for the others: at the top dose activity change, negative = active; purified B. subtilis ClpP, FRET peptide cleavage, 20 min; active = well fitted falling curve with a large enough effect; inconclusive = small, poorly fitted or top-dose-only effect; inactive = no such curve, though single readings can be large or run the other way; note: potency is the fitted concentration of half-maximal effect; the source files actives as falling curves though it sought activators and does not explain the sign; nearly all actives have a fitted effect of over 65% in size; many hits overshoot -100%
Target sequence (P80244 whole entry, looked up): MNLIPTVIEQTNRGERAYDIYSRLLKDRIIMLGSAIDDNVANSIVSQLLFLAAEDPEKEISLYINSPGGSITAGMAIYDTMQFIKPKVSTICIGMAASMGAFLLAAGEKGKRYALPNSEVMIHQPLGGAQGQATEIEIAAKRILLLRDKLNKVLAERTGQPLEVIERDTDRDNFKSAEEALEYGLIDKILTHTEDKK
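ClpP 10 microg/mL final, pH 8 Tris/KCl buffer with BSA, glycerol, Tween-20; compound pinned in; FRET-FV substrate; RT 20 min; Ex320/Em430; ΔFRET vs ADEP 5.8 microM, DMSO, no enzyme.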
CtBP-E1A blk = CtBP/E1A binding inhibition; AID 651724; activity change, % (test concentration not listed); AlphaScreen GST-E1A/His-CtBP binding, 1536-well; hits give low values; control for the full effect not named in the record; 340,000 tested, 0.49% active; in the data active means activity change below about -65%; inconclusive means about -30% to -65%; inactive means above about -30%; note: % is set by controls: 0 for no effect and ±100 for the full control effect; compound concentration not given in the record
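GST-E1A and His-tagged CtBP (125 nM each as 5X stock) were preincubated with pin-transferred compound for 2 h at 37 °C in the dark, then glutathione donor and nickel acceptor beads were added for 1 h before AlphaScreen reading.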
Menin MLL FP FL = menin-MLL binding inhibition, fluorescein peptide | Fluorescence polarization, fluorescein-MLL peptide displacement from menin | FP activity change, % at 61.4 µM | 290,000 tested, under 10 active; inconclusive = falling polarisation curve, or a change in total fluorescence; inactive = total fluorescence flat and polarisation flat or rising; no compound was filed as active; the % refers to the polarisation; negative = inhibition;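 note: % of control where 0% means no effect; inhibitors lower the polarisation; unlabelled MLL peptide was the positive control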
gsp agonist = agonists of gsp mutant (McCune-Albright syndrome); gsp mutant cells, cAMP HTRF, 30 min; control for the full effect not named in the record; Potency, µM (titrated, usually from 76.9 µM), for the others: at the highest dose activation (cAMP increase), hits mostly activators; 340,000 tested, 0.13% active; AID 624287; active = well fitted activation curve with a large enough effect; inconclusive = small, poorly fitted or top-dose-only effect, or another doubt; inactive = no such curve, though single readings can be large or run the other way; cell line not stated here;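 note: phosphodiesterase inhibitor Ro 20-1724 added with compounds to block cAMP breakdown; potency is the fitted concentration of half-maximal effect; nearly all actives have a fitted effect of over 60% in size; about a fifth of the inactives were tested at one dose only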
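Cells in DMEM/10% FBS with G418 were pretreated with compounds in DMSO plus […] (300 uM stock) for 30 min at 37C. cAMP was measured by HTRF (cAMP-d2 plus anti-cAMP antibody-K) after 30 min at room temperature.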
* = called active by the depositor; ? = inconclusive; · = no result given; & = joins results of further samples; [ ] = another dose, or the depositor's remark.

SMILES | Sfp PPTase inh | gsp antag | TRPV1 potentiator | ClpP mod | CtBP-E1A blk | Menin MLL FP FL | gsp agonist
COC(=O)c1ccc(C23CC4(C2)[C@H](CN(Cc2ccc(C(F)(F)F)cc2)[C@@H]4c2ccccc2)C3c2ccccc2)cc1 (some centres undefined) | 20.4%&1.1% | 3.6% | -10.3 | -3.6% | -7.7 | 10.1&26.8 | ·
COc1ccc(NC(=O)CSc2nnc3n2CCCCC3)cc1S(=O)(=O)N(C)C | · | · | · | -0.2% | 2.7 | · | ?
COc1ccc2[nH]c(=O)c(CN(CC3CCCO3)C(=O)Nc3ccc(F)cc3)cc2c1 (centres undefined) | 3.5% | 31.6µM* | -20.3 | 15.8µM* | 5.0 | 0.5 | 10.5%
Cc1cccc(-c2noc(CCCOc3ccc(Cl)cc3Cl)n2)c1 | -8.1% | -24.7% | -2.4 | -2.1% | 54.6 | 4.6 | 2.6%
Cn1c(=O)n(CCCO)c(=O)c2c1nc1n2CCCN1Cc1ccccc1 | 8.9% | -9.6% | 2.8 | -7.0% | · | -3.8 | 14.1%
Cc1ccc(N2C(=O)CSC2c2ccccn2)cc1Cl (centres undefined) | -10.8% | -6.1% | -21.4 | -0.3% | 9.9 | -2.1 | -7.9%
COc1ccc(CCN(C)C(=O)c2cnc(C)cn2)cc1OC | 11.3% | -8.9% | -5.9 | · | -2.8 | 1.0 | 17.9%[15.4 µM]
Cc1cc(S(=O)(=O)N2CCCC2)ccc1OCC(=O)N1CCC(C(N)=O)CC1 | 9.3% | 11.6% | -6.4 | · | -0.3 | -7.0 | 16.6%[15.4 µM]
C#CCNC(=O)C1CCN(c2ccc(S(=O)(=O)N3CCOCC3)cc2Cl)CC1 | -17.6% | -19.5% | -11.4 | -4.1% | 3.7 | -0.4 | 3.0%[15.4 µM]
COC(=O)C1C2C=CC(C3CC23)C1C(=O)OCC(=O)c1ccccc1 (centres undefined) | 11.7% | -11.8% | 11.0 | 1.3% | 2.1 | 2.2 | -45.1%[inhibitor]
C=C1c2cc(C)c(C)cc2NC(=O)N1c1ccccc1 | ? | 8.4% | 3.3 | ? | 0.1 | 8.7 | -0.5%[15.4 µM]
CC(=O)Oc1ccc(Cl)cc1/C=C/c1cc(OC(C)=O)c2ccccc2n1 | -13.7% | · | 8.2 | · | · | ? | ·
COCCN(C(=O)CNC(=O)c1ccco1)C(C(=O)NC1CCCC1)c1ccccc1 (centres undefined) | 16.5% | 20.4% | 11.2 | · | -11.7 | 0.2 | -1.6%[15.4 µM]
CNC(=S)Nc1ccc(-c2nc3ccc(C)cc3s2)cc1 | -3.9% | -21.8% | 14.3 | · | 6.6 | -0.1 | -15.5%[15.4 µM]
CCCCc1nnc(NC(=O)c2ccc(OCc3c(C)noc3C)cc2)s1 | · | -3.4% | -3.8 | -22.7% | 7.9 | · | 27.8%
COc1ccc(-c2nc(-c3ccccc3OC)no2)cc1OC | ? | -3.0% | 29.9 | -21.4% | -10.8 | -0.6 | -7.9%
CN(C(=O)Cn1nc(C(=O)O)c2ccccc2c1=O)C1CCCCC1 | · | -5.9% | · | -0.1% | 3.9 | · | 1.1%[15.4 µM]
O=C(NCCOc1ccccc1)c1ccc2c(c1)S(=O)(=O)c1cc(Cl)ccc1C2=O | · | -22.4% | · | 0.0% | -2.5 | · | ·
CCOc1ccc(-n2ccnc2SCC(=O)Nc2nnc(C)s2)cc1 | 2.1% | 1.9% | -0.2 | 1.0% | -6.6 | 4.7 | -1.6%
CC(CCc1ccc(O)cc1)NCc1ccc(Cl)cc1Cl (centres undefined) | -3.5% | 4.3% | 2.7 | -1.1% | -17.5 | -0.5 | -1.8%[15.4 µM]
C1=C(c2ccco2)N2CCN=C2S1 | ? | 9.9% | -13.3 | -1.3% | -3.9 | -1.7 | 2.7%[15.4 µM]
CCN(CC)S(=O)(=O)c1ccc(NC2c3ccccc3C(=O)N2CCN2CCOCC2)cc1 (centres undefined) | ? | -12.2% | 12.4 | 0.9% | -5.2 | -0.3 | -2.7%
COC(=O)C1=C(O)CSC1=Nc1ccc(C)cc1 | 9.4% | 5.9% | 4.8 | 0.3% | 1.6 | 1.9 | -14.4%
CCc1ccc(CN2CCSCC2)cc1 | -12.6% | 2.2% | 21.7 | -0.1% | 3.0 | -1.8 | 8.2%[15.4 µM]
O=C1N(Cc2ccccc2F)c2ccccc2C12OCCCO2 | 6.6% | -19.4% | 7.7 | 0.9% | 9.2 | 3.1 | 10.4%
Other results follow.
SMILES | Sfp PPTase inh | gsp antag | TRPV1 potentiator | ClpP mod | CtBP-E1A blk | Menin MLL FP FL | gsp agonist
CCOC(=O)C1=C(COC(=O)COc2ccc(C(=O)CC)cc2)NC(=O)NC1C (centres undefined) | · | -18.6% | -5.3 | -2.7% | -4.5 | · | -3.5%
Cn1c(CC(=O)Nc2ccccc2F)nnc1SCC(=O)Nc1nncs1 | 17.7% | 0.0% | -7.1 | · | -1.1 | -2.5 | -3.0%
O=C(COC(=O)COc1ccc(Cl)cc1)Nc1ccc(F)c([N+](=O)[O-])c1 | -15.8% | 4.1% | 7.2 | -19.0% | -6.9 | 3.2 | -24.3%
O=C(CN(c1ccc(Cl)cc1)S(=O)(=O)c1ccccc1)N/N=C/c1ccco1 | -1.4% | -27.7% | 15.8 | -8.1% | -3.1 | 2.7 | -51.2%[inhibitor]
Cc1cc(C(=O)OCC(=O)NCCc2ccc(S(N)(=O)=O)cc2)c2ccccc2n1 | · | 3.3% | -8.4 | -20.4% | · | · | -28.6%
CCOc1cccc(C(=O)Nc2ccc3c(c2)OCCO3)c1 | 1.1% | 1.9% | -17.5 | -6.2% | 3.8 | 0.5 | -3.6%[15.4 µM]
CC(NC(=O)COC(=O)Cc1ccc(-c2ccccc2)cc1)c1ccccc1 (centres undefined) | 13.4% | 1.5% | 19.9 | -0.2% | 15.0 | 3.5 | -30.8%[inhibitor]
CC(Sc1nc2cc([N+](=O)[O-])ccc2n1-c1cccc(C(F)(F)F)c1)C(=O)NC(N)=O (centres undefined) | 10.7% | -5.5% | -5.8 | 0.0% | 3.4 | 3.7 | -7.6%[15.4 µM]
COc1ccc(CCN(C)C(=O)CSc2nnc(C3CC3)n2N)cc1OC | · | 12.4% | 1.6 | 25.1µM* | 11.3 | · | 0.9%
COc1ccc(CN(Cc2nc3ccccc3c(=O)[nH]2)C(=O)NC2CCCCC2)cc1 | 6.2% | 8.3% | 11.0 | -4.4% | -0.3 | 3.1 | -23.6%
CCOC(=O)N1CCN(C(=O)CCc2ccc(S(=O)(=O)NCC(C)C)cc2)CC1 | · | -4.6% | · | · | 6.4 | · | ?
O=C(CN1CCN(C(=O)N2CCOCC2)CC1)Nc1ccc(Br)cc1 | -8.5% | 9.4% | ? | 0.2% | -1.0 | -0.3 | 12.7%
O=C(COc1ccc(Cl)cc1Br)N1CCN(S(=O)(=O)c2ccccc2)CC1 | 1.0% | -16.9% | -1.2 | · | -4.9 | · | 1.2%[15.4 µM]
COc1ccc(/C=C2/C(=O)N(c3nc4ccccc4s3)N=C2CSc2ccc(Cl)cc2)cc1 | -13.2% | 11.2% | -2.1 | -12.5% | -6.4 | 6.9 | 23.5%
CNc1nc(C)cc(C)c1S(=O)(=O)c1ccc(Cl)cc1 | -15.9% | 11.1% | -9.1 | -17.6% | 5.6 | 2.7 | -6.2%
COc1ccc(OC)c(CC(NC(C)=O)C(=O)NC2CCN(C(=O)c3cccc(C)c3)CC2)c1 (centres undefined) | 24.2% | 14.2% | -12.6 | · | -9.2 | -6.7 | -1.1%[15.4 µM]
COc1cc(CNc2cccc(F)c2)cc(Br)c1O | -21.8% | -19.1% | -5.1 | -5.4% | -6.5 | 2.8 | 9.8%
CC(/C=N/NC(=O)c1cc(-c2cccn2C)n[nH]1)=C\c1ccccc1 | -9.2% | -8.5% | -8.3 | · | -9.6 | 3.4 | -10.4%[15.4 µM]
COc1ccc(Cl)cc1NC(=O)COC(=O)C1CC1 | · | 14.2% | -5.6 | -4.0% | -10.0 | · | 5.8%
O=C(COC(=O)CNC(=O)c1ccccc1)NC12CC3CC(CC(C3)C1)C2 | · | · | · | -1.0% | 5.8 | · | -40.8%[inhibitor]
CC(C)[C@H](NC(=O)c1ccco1)C(=O)OCC(=O)Nc1ccccc1OC(F)F | 6.7% | -53.9% | 1.1 | · | 0.0 | 4.3 | 27.0%[15.4 µM]
CCn1cnc2c1c(=O)n(CC(=O)NCc1ccccc1)c(=O)n2Cc1ccccc1 | 12.1% | 3.8% | 0.4 | -1.0% | -5.8 | -0.9 | -24.2%
Cn1c(-c2cc3ccc(OC(=O)C(C)(C)C)cc3oc2=O)nc2ccccc21 | 15.4% | ? | 20.3 | -14.9% | 33.2 | 1.2 | 3.5%
CC(C)(C)C(=O)N1CCN(C(c2ccccc2)c2ccccc2)CC1 | 3.7% | -16.5% | -9.2 | -0.1% | 3.4 | 5.1 | -0.3%[15.4 µM]
Cc1nc(CCNC(=O)CC2C(=O)NCCN2CC(C)(C)C)nc2c1CCC2 (centres undefined) | · | 7.4% | · | -10.5% | -0.6 | · | -53.4%[inhibitor]
CCCOc1ccc(N2C(=O)CC(NCc3ccc(S(N)(=O)=O)cc3)C2=O)cc1 (centres undefined) | 9.7% | 4.9% | 6.4 | · | -14.7 | -3.7 | -13.3%[15.4 µM]
Cc1ccc(CNc2ccc(N3CCOCC3)cc2)s1 | -11.7% | -23.1% | -6.6 | -0.6% | -22.6 | 2.5 | 0.0%
CCCNC(C)C(=O)Nc1ccccc1C (centres undefined) | 2.8%&4.2% | 3.4% | 4.2 | 1.4% | 13.1 | 3.2&-1.2&-2.5 | ·
COc1ccc(CSCC(=O)Nc2ccccc2)cc1[N+](=O)[O-] | -2.2% | -9.5% | -10.9 | · | 2.0 | -1.6 | ?
Cc1ccc(S(=O)(=O)N(C)C)cc1NC(=O)COC(=O)c1ccc2ccccc2n1 | · | -1.9% | ? | -11.8% | -3.7 | · | 21.5%
